Screens (PubChem)
HIV TAR-Tat – HIV-1 TAR-Tat binding disruption. AID 1259389. 0.6% of 100,000 active. HIV-1 TAR RNA, Tat peptide displacement FRET; hits give high values. z-score (concentration not given with the values);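 also: score is relative to mean and SD of negative controls; some compounds called inactive have numbers as strong as hits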
CDC25B-CDK2 inh – human CDC25B-CDK2/CyclinA binding inhibition; 0.72% of 94,000 active; z-score (no concentration beside the values); HTRF CDC25B-CDK2/CyclinA binding, anti-His/anti-Flag; hits give high values;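 also: score is relative to mean and SD of negative controls; strong numbers were not always called active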
* = called active by the depositor; . = no result given.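 The calls were made as follows: active = z-score from 3 up in half or more of its runs; inactive = the rest.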

SMILES | HIV TAR-Tat | CDC25B-CDK2 inh
C=CCOc1ccc2c(C)cc(=O)oc2c1C(=O)c1ccccc1 | . | 4.5
O=C(NCCCn1ccnc1)C(=O)Nc1c2c(nn1-c1ccc(F)cc1)CSC2 | 0.48 | .
CCOC(=O)C1=C(C)Nc2nc(SCC(C)C)nn2C1c1ccc(F)cc1 (stereo not drawn) | -1.2 | -2.8
Cc1nnc(NCCC(C)C)c2c1nnn2Cc1ccc(F)cc1 | 2.5 | -0.07
O=C(Nc1ccc2c(c1)OCCO2)Nc1nnc(CC(=O)N2CCCC2)s1 | 1.8 | .
Cn1c(Cn2c(=O)sc3ccccc32)nnc1SCC(=O)N1CCCCCC1 | . | -0.01
CC(C)(C)CC(=O)NCc1n[nH]c(=O)c2ccccc12 | 1.6 | .
Cc1nn(CCCC(=O)NCCCN2CCCC2=O)c(=O)c2cc3occc3n12 | 2.9 | 0.06
CCCN1CCN(c2nc(NCc3ccc(C)cc3)c3cnn(C)c3n2)CC1 | 2 | .
O=C(NCc1csc(-c2ccccc2)n1)[C@H]1CSCN1C(=O)C1CCCC1 | 1.3 | .
Cc1ccc2[nH]c(=O)c(-c3noc(-c4ccccc4F)n3)cc2c1 | 0.19 | 0.19
COc1cscc1C(=O)Nc1cc(C(F)(F)F)cc(C(F)(F)F)c1 | . | -0.73
O=S1(=O)N(Cc2ccccc2F)CCCN1Cc1c(F)cccc1Cl | -0.18 | .
Cc1ccc(C2CC(C(F)(F)F)n3ncc(C(=O)Nc4ccc5c(c4)OCO5)c3N2)cc1 (stereo not drawn) | 2.2 | -0.22
O=C(C1CCC1)N1CCc2cc(S(=O)(=O)NCCN3CCN(c4ccccc4)CC3)ccc21 | . | -0.58
CSc1ncc(C#N)c(N)n1 | . | -1.8
CC1CCN(S(=O)(=O)c2cn(CC(=O)N(C)Cc3ccco3)cn2)CC1 | 0.29 | .
Cc1ccc2nc(-c3cccs3)c(Nc3ccc4c(c3)OCO4)n2c1 | . | -2.7
CCC(C)NC(=O)C1=CC(c2ccco2)=NS(=O)(=O)N1C (stereo not drawn) | 0.07 | -0.67
C=CCn1c(N2CCC(C(=O)NCc3cccs3)CC2)nc2ccccc21 | 1.9 | -0.14

Looked up one by one from above, two records:
SMILES | HIV TAR-Tat | CDC25B-CDK2 inh
CCOC(=O)C1=C(C)Nc2nc(SCC(C)C)nn2C1c1ccc(F)cc1 (stereo not drawn) | -1.2 | -2.8
C=CCn1c(N2CCC(C(=O)NCc3cccs3)CC2)nc2ccccc21 | 1.9 | -0.14

Continuation.
SMILES | HIV TAR-Tat | CDC25B-CDK2 inh
Cn1nc(Oc2nc(N3CCCCC3)nc(N3CCCCC3)n2)ccc1=O | 1.5 | 0.54
COc1cc2c(C(=O)O)c(C)n(-c3ccccc3)c2cc1Br | 0.79 | -2.2
CCOC(=O)c1cc2c(c(CSc3nc4ccccc4c(=O)n3Cc3cccs3)c1)OCOC2 | -2.8 | .
COc1ccc(SCCC(=O)NNS(=O)(=O)c2cccs2)cc1 | . | 0.07
CCOC(=O)N1CCN(C(=O)c2cc3c(=O)n4cccc(C)c4nc3s2)CC1 | 0.84 | -0.16
O=C(O)CCCC(=O)Nc1ccn(-c2ccccc2)n1 | -0.44 | -0.1
N#CCC(=O)N(Cc1ccccc1F)C(=O)NC1CCCCC1 | . | -0.95
COc1ccccc1-n1c(SC)nc(O)cc1=O | 2.1 | -0.54
O=c1c(S(=O)(=O)c2ccccc2)cn(Cc2cccc(Cl)c2)c2ccc(F)cc12 | 1.5 | -1.7
Cc1nn(CC(=O)O)c(C)c1Cl | 0.25 | 1.6
O=C1c2oc3ccc(Cl)cc3c(=O)c2C(c2cccc(O)c2)N1Cc1ccc2c(c1)OCO2 (stereo not drawn) | 1.7 | 1.7
CCOC(=O)CNC(=O)c1ccc([N+](=O)[O-])o1 | -0.56 | -2.4
CC1=C(c2ccc(C)c(C)c2)S(=O)(=O)NC1=NCc1ccccc1C | 0.65 | -2.1
CCN(c1ccccc1)c1ncnc2c1cnn2-c1cccc(C)c1 | . | -2.1
O=c1c2ccccc2nc2n1CCCN2 | . | 1.1
CC(C)(C)c1nnc(Nc2ccccc2Cl)[nH]c1=O | 0.72 | 1.9
CC(=O)N1C(C[N+](=O)[O-])CC(C)N1c1ccccc1 (stereo not drawn) | . | -3.1
CCc1ccc(NS(=O)(=O)c2ccc3[nH]c4c(c3c2)CCCC4)cc1 | -3.6 | .
O=C(CCC1CCCC1)Nc1c2c(nn1-c1ccc(F)cc1)CSC2 | . | -1.1
Cc1c(C(=O)N(Cc2cccs2)C2CCCC2)sc2nc3n(c(=O)c12)CCCCC3 | 2.5 | -1.8
O=C1c2cccnc2C(=O)N1Cc1ccc(F)cc1S(=O)(=O)NCC1CCCO1 (stereo not drawn) | 0.42 | .
COc1ccc(OC)c(NC(=O)Nc2nc3c(s2)CN(S(=O)(=O)c2ccccc2)CC3)c1 | 0.74 | .
Cn1ccc(NS(=O)(=O)c2ccc(NS(=O)(=O)c3ccc(Cl)cc3)cc2)n1 | . | -0.05
CC(=O)Oc1cc(C(=O)Nc2ccccc2C(=O)O)cc(C(=O)Nc2ccccc2C(=O)O)c1 | . | 0.95
Cc1cc(C)c(S(=O)(=O)NCc2cccn2Cc2ccccc2C)c(C)c1 | 0.73 | .
O=C1c2cccnc2C(=O)N1Cc1ccc(S(=O)(=O)NCc2ccc(F)cc2)s1 | -1.1 | .
Cc1nc(C)c(C(=O)NNC(=O)COc2ccc(Cl)cc2Cl)s1 | . | -0.96
CC(C)N(C(=O)Cn1c(=O)oc2cc(S(=O)(=O)N3CCCCC3)ccc21)C1CCCCC1 | -2 | -0.19
O=C(CCC(=O)c1ccc2c(c1)OCCO2)OCC(=O)c1ccc(F)cc1 | 0.17 | 0.28
Cc1nc(-n2[nH]c(C)c(CCC(=O)N3CCCCC3)c2=O)sc1C | -0.25 | -2.1
O=C(CNC(=O)c1ccco1)OCc1cc(=O)n2c3c(sc2n1)CCCC3 | 0.62 | .
COC(=O)C1=C(C(=O)OC)SC(=C2C(=S)C(C)(C)N(C(C)=O)c3cc(C)ccc32)S1 | 0.31 | -3.2
Cc1c(OC(C)C(=O)OCC(C)C)ccc2c3c(c(=O)oc12)CCC3 (stereo not drawn) | . | -0.37
CCN(CC)CCn1c(NCc2cccc(Br)c2)nc2ccccc21 | 0.21 | 0.6
O=C1c2ccccc2NC(c2ccc(O)cc2)N1c1cccc2ccccc12 (stereo not drawn) | 0.16 | -0.76
CCOC(=O)N1CCN(C(=O)CSc2nnc(-c3cccs3)o2)CC1 | -0.03 | -1.6
COCCCNC(=O)CCC(=O)N1CCCn2nc(C)cc21 | 2.3 | .
Cc1nn(CC(=O)NC2CC2)c(=O)c2c(-n3cccc3)n(-c3ccc(Cl)cc3)nc12 | 0.16 | .
CN(C)c1ccc(CNc2nc(-c3ccco3)nn2S(=O)(=O)c2ccc(Cl)cc2)cc1 | 1.4 | -2.5
Cc1nn(CC(=O)NC(C)C)c(=O)c2c(-n3cccc3)n(-c3ccc(Cl)cc3)nc12 | 0.76 | .

Among those listed so far, these have a nitro group on carbon.
SMILES | HIV TAR-Tat | CDC25B-CDK2 inh
CCOC(=O)CNC(=O)c1ccc([N+](=O)[O-])o1 | -0.56 | -2.4
CC(=O)N1C(C[N+](=O)[O-])CC(C)N1c1ccccc1 (stereo not drawn) | . | -3.1

Next part:
SMILES | HIV TAR-Tat | CDC25B-CDK2 inh
CCc1ccc(S(=O)(=O)c2cn(C)c3cc(N4CCCC4)c(F)cc3c2=O)cc1 | -1.1 | .
O=C(NCCCN1CCC(N2CCCCC2)CC1)C1CCN(c2nc3cccnc3s2)CC1 | 1.1 | .
O=S(=O)(NCCn1c(-c2ccncc2)nc2ccccc21)c1cccc2nsnc12 | 0.75 | .
CCOc1cccc(=O)c2c(C)[nH]c(C)c12 | -2.8 | -1.1
COc1ccc2ncc(S(=O)(=O)c3ccccc3)c(N3CC(C)CC(C)C3)c2c1 (stereo not drawn) | 0.72 | 1
CC1(C)CC(=O)C2=C(C1)Nc1[nH]n(-c3ccccc3)c(=O)c1C2c1cccnc1 (stereo not drawn) | 0.56 | -2.7
CC1CCN(C(=O)C2CCC(CNc3c(N4CCCCC4)c(=O)c3=O)CC2)CC1 (stereo not drawn) | 3.5 | -0.13
Cc1ccc2nsnc2c1S(=O)(=O)NCCc1c(C)[nH]c2ccccc12 | 2.1 | 0.35
COC(=O)C1SC/C(=N\O)C1C(=O)OC (stereo not drawn) | . | -1.3
Cc1nc(-c2ccc(S(=O)(=O)Nc3ccc(F)cc3C)cc2)co1 | 0.42 | .
CCOc1ccc2ncc(S(=O)(=O)c3ccc(OC)cc3)c(N3CCOCC3)c2c1 | 0.77 | -0.11
O=C1OC(Nc2cccc(F)c2)c2ccccc21 (stereo not drawn) | -0.4 | -0.1
COCCNC(=O)Nc1cc2ccc(OC)cc2n1C | 0.06 | -0.97
O=C(O)c1sc2ccccc2c1Nc1ccccc1 | -0.74 | -2.8
CCN1CCN(S(=O)(=O)c2ccc3c(c2)NC(=O)CC(C)S3)CC1 (stereo not drawn) | 0.72 | .
CCCc1n(CC(O)COc2ccc(F)cc2)c2ccccc2[n+]1C (stereo not drawn) | 2.2 | 0.22
CCCC(=O)Nc1nnc(SCc2cc(=O)c3cc(C)ccc3[nH]2)s1 | 1.5 | .
Cc1ccc2nc(COc3ccccc3NC(=O)C(C)C)cc(=O)n2c1 | 0.79 | .
O=C(Nc1ccc(Cl)cc1F)C1CCN(S(=O)(=O)c2ccc3[nH]c(=O)oc3c2)CC1 | -0.22 | .
Cc1ccc(S(=O)(=O)N2CCOCC2)cc1C | 1.3 | -1.6
CNc1nc2cccnc2s1 | . | 8.2*
O=C(CN1C(=O)CCc2cc(Br)ccc21)N1CCN(c2ccccn2)CC1 | 1.7 | .
COc1ccc(/C(O)=C2\C(=O)C(=O)N(c3nnc(C)s3)C2c2ccc(Cl)cc2)cc1 (stereo not drawn) | . | -1.1
CN1CCN(C(=O)c2cnn3c4c(cnc23)CCCCCC4)CC1 | 1.4 | .
Cc1ncc([N+](=O)[O-])n1CCSc1nnc(SCc2ccccc2)s1 | . | -0.99
Cn1c(=O)n(C/C=C/c2ccccc2)c(=O)c2c1nc1n2CCN1c1ccc(F)cc1 | 12* | .
CCOc1ccc(OCC)c(Nc2nc3ccc(C)cc3n3cnnc23)c1 | -0.2 | -1.1
O=C(CSc1nnc(-c2cccs2)o1)N1CCCC1 | 1.2 | -1.5
CCOc1ccc(S(=O)(=O)Nc2cc(Sc3ncn[nH]3)c3oc(=O)sc3c2)cc1 | . | -2.5
CCn1c2c(c3cc(OCC(C)C)ccc31)CCCC2=O | . | -1.2
CCSCCOC(=O)C1=C(C)NC2=C(C(=O)CC(C)(C)C2)C1c1ccc(OC)cc1OC (stereo not drawn) | 0.28 | 0.08
Cc1ccc(Nc2cnc3ccccc3n2)c(Cl)c1 | -4.5 | .
Cc1cc2c(cc3n2CC(C)(C(=O)NC2CCCCC2)N(Cc2ccccn2)C3=O)o1 (stereo not drawn) | 1.5 | .
COc1ccc(C(=O)c2cnc3ccccc3c2N2CCCC2)cc1 | 2.9 | -1.2
O=C(NC1CC1)c1cc(=O)[nH]c2ccc(S(=O)(=O)N3CCCC3)cc12 | . | -0.89
Cc1nc2nc(C)c(NS(=O)(=O)c3ccc4c(c3)CCCC4)c(=O)n2[nH]1 | 0.21 | 0.13
CCC(C)N(CCNS(=O)(=O)c1csc(C(N)=O)c1)Cc1ccco1 (stereo not drawn) | 0.36 | .
Cc1ccc(-c2csc3c2ncn2c(=O)n(CC(=O)Nc4ccc5c(c4)OCO5)nc32)cc1 | -0.88 | .
CC1=C(C)Cc2c(c(-c3ccccc3)c3c(c2-c2ccccc2)C2c4ccccc4C3c3ccccc32)C1 | . | 0.19
Cc1csc2nc(CSc3nc4ccccc4[nH]3)cc(=O)n12 | 0.59 | -1.7
CCOC(=O)C(C(=O)NCCCN1CCOCC1)C1CCCCC1 (stereo not drawn) | 0.95 | -0.35
c1nc(N2CCOCC2)c2sc3nc(N4CCOCC4)c4c(c3c2n1)CCCC4 | -0.5 | -0.87
COc1cc(C2N(C)c3ccccc3N2C)ccc1O | 0.39 | -0.57
CC1N=C2c3ccccc3N=C(SCC(=O)N3CCN(c4ccc(F)cc4)CC3)N2C1=O (stereo not drawn) | 1.5 | .
Cc1cc(NC(=O)CSc2nnc(Cc3cccn3C)n2C)no1 | -0.15 | -0.38
COc1ccc(-c2nnc(NCc3ccccc3)c3ccccc23)cc1 | 0.56 | -2.8
CC(NC(=O)c1cnc2sc3c(n2c1=O)CCCC3)c1ccc2c(c1)OCCO2 (stereo not drawn) | 0.8 | .
CCOC(=O)c1c(NC(=O)c2noc3c2CCCCC3)sc2c1CCCC2 | . | -0.29
COCCCNC(=O)c1c(O)nc2ccccn2c1=O | 0.19 | -1.6
N#CC(C#N)=C(NC(=O)c1cccc(Cl)c1)Nc1ccccc1Cl | . | -1.8
CC(=O)N1CCc2cc(Br)cc(S(=O)(=O)NCc3ccc4c(c3)OCO4)c21 | . | -0.01

Gathered by group: those above containing a furan ring, fused or not
SMILES | HIV TAR-Tat | CDC25B-CDK2 inh
Cc1nn(CCCC(=O)NCCCN2CCCC2=O)c(=O)c2cc3occc3n12 | 2.9 | 0.06
CC1CCN(S(=O)(=O)c2cn(CC(=O)N(C)Cc3ccco3)cn2)CC1 | 0.29 | .
CCC(C)NC(=O)C1=CC(c2ccco2)=NS(=O)(=O)N1C (stereo not drawn) | 0.07 | -0.67
CCOC(=O)CNC(=O)c1ccc([N+](=O)[O-])o1 | -0.56 | -2.4
O=C(CNC(=O)c1ccco1)OCc1cc(=O)n2c3c(sc2n1)CCCC3 | 0.62 | .
CN(C)c1ccc(CNc2nc(-c3ccco3)nn2S(=O)(=O)c2ccc(Cl)cc2)cc1 | 1.4 | -2.5
Cc1cc2c(cc3n2CC(C)(C(=O)NC2CCCCC2)N(Cc2ccccn2)C3=O)o1 (stereo not drawn) | 1.5 | .
CCC(C)N(CCNS(=O)(=O)c1csc(C(N)=O)c1)Cc1ccco1 (stereo not drawn) | 0.36 | .
